High-throughput results as filed in PubChem.
eIF4H FP inh: human eIF4H binding inhibitors, primary screen, translation initiation inhibitor project, biochemical, uHTS, fluorescence polarization; eIF4H fluorescence polarization binding assay; inhibition, % at 35 µM; 290,000 tested, 0.94% active; Eukaryotic translation initiation factor 4H (Homo sapiens), Q15056;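 active = 50% or more with normal probe brightness, or confirmed in later tests; about a fifth of its hits are not listed in these tables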;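 note: calls also rest on retests at 20 µM and on dose response follow-up; 0% = protein and probe with vehicle and 100% = probe without protein; strong numbers were not always called active; many hits fall short of the cut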
PABP polyA inh: PABP poly(A) RNA binding inhibitors, primary screen, biochemical, fluorescence polarization, uHTS. inhibition, % at 35 µM. 290,000 tested, 1% active. Polyadenylate-binding protein 1 (Homo sapiens), P11940;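 active = 50% or more with normal probe brightness, or confirmed in later tests; about a fifth of its hits are not listed in these tables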;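 note: calls also rest on retests at 20 µM and on dose response follow-up; controls were probe without protein and protein plus probe with vehicle; some compounds called inactive have numbers as strong as hits; many hits fall short of the cut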
Target sequence (P11940 whole entry, looked up): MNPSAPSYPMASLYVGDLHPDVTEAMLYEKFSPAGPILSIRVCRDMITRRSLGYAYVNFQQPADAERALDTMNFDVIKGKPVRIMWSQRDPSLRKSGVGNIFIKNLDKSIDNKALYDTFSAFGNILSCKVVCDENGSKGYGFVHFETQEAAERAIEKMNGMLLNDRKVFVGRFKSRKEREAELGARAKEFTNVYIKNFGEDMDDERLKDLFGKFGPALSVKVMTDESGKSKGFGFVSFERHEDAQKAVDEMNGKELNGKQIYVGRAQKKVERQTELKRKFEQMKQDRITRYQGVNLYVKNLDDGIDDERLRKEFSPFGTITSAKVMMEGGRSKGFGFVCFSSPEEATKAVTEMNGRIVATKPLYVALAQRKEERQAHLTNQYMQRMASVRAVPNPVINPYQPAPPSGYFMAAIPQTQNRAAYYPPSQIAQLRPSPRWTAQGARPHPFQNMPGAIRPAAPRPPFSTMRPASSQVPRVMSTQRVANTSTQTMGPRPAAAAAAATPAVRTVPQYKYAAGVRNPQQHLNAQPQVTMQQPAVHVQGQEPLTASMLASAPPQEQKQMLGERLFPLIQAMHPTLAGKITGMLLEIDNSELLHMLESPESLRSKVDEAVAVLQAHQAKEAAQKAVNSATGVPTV
Yeast UUG start: modulators of yeast start codon fidelity, primary screen, whole organism, S. cerevisiae, single point, plate reader. activity score, % at 18.7 µM. S. cerevisiae UUG-firefly luciferase reporter, luminescence/redox ratio. 350,000 tested, 0.13% active;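 active = replicate mean at a twofold rise or more, about +100% in these data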;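 note: firefly luciferase made from a UUG start codon reports start codon fidelity; reporter light over untreated wells divided by growth signal over untreated wells; some hits fall short of that in this replicate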
CSC inhib: cancer stem cell viability inhibitors, primary screen, luminescence. cancer stem cell-like cells viability. inhibition, % at 7.5 µM. AID 2717, 2010. 300,000 tested, 1.1% active;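 active = mean at 75% or more and at least half the replicates too; tested in HMLE shEcad cells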;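 note: 0% = median of negative and 100% = median of positive control wells; the first replicate is given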
MT1-MMP act inh: blockers of MT1-MMP proenzyme processing, primary screen, HT1080 RFP-PRO-GFP cells, GFP/RFP fluorescence; Matrix metalloproteinase-14 (Homo sapiens), P50281; GFP/RFP ratio fluorescence, overnight; percent of plate control window, DMSO zero; GFP/RFP ratio change, % at 20 µM; 360,000 tested, 0.061% active; AID 651647, 2012;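 active = GFP/RFP ratio change of at least 30% with cell ATP level not reduced by more than half and red fluorescence within 50% of control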; note: strong numbers were not always called active
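Assay system: HT1080 RFP-PRO-GFP cells. Benchmarks: DMSO vehicle wells and RFP-L50D-GFP reporter cell wells. Times: overnight cell settling, then overnight compound exposure, 37 °C, 5% CO2. Compound: 20 µM single dose, 1% DMSO. Read-out basis: GFP/RFP fluorescence ratio.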
Rce1 inhib: yeast Rce1p protease inhibitors, primary screen, biochemical, fluorescence, cell-free homogeneous; yeast membranes, quenched prenylated peptide cleavage fluorescence; calls only; 290,000 tested, 0.27% active;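 active = fall in fluorescence gain of 50% or more versus controls, with final raw signal at or below 3038400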;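 note: plate controls were neutral control wells for no effect and wells lacking membranes for full effect; tested at 10 µM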
Target sequence (Q03530 whole entry, looked up): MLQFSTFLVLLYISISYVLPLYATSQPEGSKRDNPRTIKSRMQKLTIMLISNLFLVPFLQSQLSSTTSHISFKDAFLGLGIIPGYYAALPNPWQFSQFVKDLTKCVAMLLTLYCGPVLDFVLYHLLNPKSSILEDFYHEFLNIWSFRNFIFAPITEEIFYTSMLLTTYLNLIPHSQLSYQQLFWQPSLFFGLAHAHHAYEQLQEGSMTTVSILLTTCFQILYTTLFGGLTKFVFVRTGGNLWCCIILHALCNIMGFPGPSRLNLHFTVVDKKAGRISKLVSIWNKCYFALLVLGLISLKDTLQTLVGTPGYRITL
HIV Env fusion: inhibitors of HIV-1 Env-driven cell-cell fusion, primary screen, HeLa-JRFL effector, CEM21 target cells, luciferase. AID 651610, 2012. inhibition, % at 12.3 µM. 360,000 tested, 1.1% active;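 active = mean replicate inhibition score of at least 50 and every replicate individually at or above 50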;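 note: 0% = plate neutral controls and 100% = maraviroc near 300 nM; one replicate is shown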
eIF4H FP inh retest: second read-out of eIF4H FP inh, no call of its own (marks repeat the call); inhibition, %; compound at 20 µM; confirmation average;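 mean of two retest wells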
PABP polyA inh retest: recorded beside PABP polyA inh, whose call it bears; inhibition, %; compound at 20 µM; confirmation repeats;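 mean of two retest wells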
MT1-MMP act inh RFP: second read-out of MT1-MMP act inh, no call of its own (marks repeat the call); RFP signal change, %; measured here: RFP expression control read;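 0 = vehicle wells; hits needed this value within 50% of zero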
The depositor's hits bear a star; i = inactive; nt = no result given; & = joins results of further samples.

SMILES	eIF4H FP inh	PABP polyA inh	Yeast UUG start	CSC inhib	MT1-MMP act inh	MT1-MMP act inh RFP	Rce1 inhib	HIV Env fusion	others
O=c1c2oc3ccccc3c2ncn1Cc1ccc(F)cc1	-6	-12	-3	-6	5	1	i	0
CCOC(=O)CC[C@H](NC(=O)Cn1cnc2c(NCc3ccccc3)ncnc21)C(=O)OCC	nt	nt	-13	nt	3	4	nt	12
CC(C)(C)OC(=O)NCCCC[C@H](NC(=O)c1nc[nH]c1C(=O)NC1CCN(C(=O)OC(C)(C)C)CC1)C(=O)OC(C)(C)C	0	0	-5	-8	-9	-19	i	-67
CCC(=O)NC(=S)Nc1ccc(NC(=O)COc2ccc(Cl)c(C)c2)cc1	34	3	nt	18	11	1	i	-12
CCCCC1=CC2=CC(=O)C(C)(OC(=O)CC)C(=O)C2=CN1c1ccccc1 (centres undefined)	83	45*	-20	38	-2	8	i	nt	eIF4H FP inh retest=26;PABP polyA inh retest=65*
O=C(c1csc2c1CCCCC2)N1CCN(c2ncccn2)CC1	-8	-2	-12	-6	-3	-5	i	nt
Cc1cc(NC(=O)CCN2CCCCC2)ccc1Br	-5	4	-11	nt	1	0	i	-22
COc1ccc(S(=O)(=O)N2CCCC(c3cc(C(=O)NCc4cccnc4)no3)C2)cc1 (centres undefined)	nt	nt	-14	nt	3	-5	nt	-19
CC(C)Oc1cc(C(=O)NC2CCCCC2)c2ccccc2n1	-4	-2	2	3	-3	1	i	17
CCCNC(=O)C(Cc1ccccc1)NS(=O)(=O)c1ccc2c(c1)c(=O)n(C)c(=O)n2C (centres undefined)	8	-3	-26	-3	1	6	i	-7
C=CCn1c(SCC(=O)NCC(c2ccccc2)N(C)C)nc2sc3c(c2c1=O)CCC3 (centres undefined)	nt	nt	-4	nt	-7	-5	nt	26
CCCN(CC(=O)Nc1ccccc1OC)C(=O)c1cc(-c2cccs2)nn1-c1ccccc1	nt	nt	nt	2	-6	-3	i	2
CCn1c(CSc2nncn2-c2ccc(OC)cc2)nc2cc(S(=O)(=O)N(C)C)ccc21	-5	1	-20	-6	1	1	i	-28
COCCNC(=O)COc1ccc(N(C)S(=O)(=O)c2ccc3ccccc3c2)cc1	0	-4	-16	-10	1	6	i	15
Cc1ccccc1S(=O)(=O)Cc1ccc(C(=O)NCc2cccnc2)o1	11	-12	6	0	2	4	i	13
CCCOc1cc(C)c(S(=O)(=O)NCCOC)cc1C	2	4	-14	nt	4	-3	i	-20
CCCOc1ccc(NC(=O)C2CC(=O)N3CCCN=C3S2)cc1 (centres undefined)	9	-3	-10	1	2	2	i	-76
CCOC(=O)C1=C(C)N(CCCC(=O)O)C(=O)NC1c1ccc2ccccc2c1 (centres undefined)	nt	nt	-12	-7	2	1	i	-7
CC(=O)c1ccc(NC(=O)c2noc(C(C)C)c2[N+](=O)[O-])cc1	3	-12	nt	-13	1	4	i	-17
O=C(Cc1cccs1)N1CCN(S(=O)(=O)c2ccc(Cl)c(C(F)(F)F)c2)CC1	nt	nt	-3	-4	3	5	nt	nt
CCN(CC(=O)NCc1ccc(F)cc1)C(=O)c1ccc2c(c1)OCO2	nt	nt	nt	-4	0	1	nt	18
O=C(NCc1ccccn1)c1nc(Cn2cc([N+](=O)[O-])cn2)no1	-4	-1	-15	-2	-1	0	i	-1
CC(C)N1C(=O)c2ccc(C(=O)O)cc2C1=O	-4	7	-10	-5	1	3	i	nt
COCCNC(=O)C(c1ccc(Cl)cc1)N(C(=O)CCC(=O)Nc1ccccn1)C1CCCC1 (centres undefined)	4	4	-18	-12	2	5	i	nt
Cc1cccc(C)c1NC(=O)c1cccc2c1-c1ccccc1C2=O	-16	-1	-2	nt	4	3	i	nt
SMILES	eIF4H FP inh	PABP polyA inh	Yeast UUG start	CSC inhib	MT1-MMP act inh	MT1-MMP act inh RFP	Rce1 inhib	HIV Env fusion	others
O=C(CCNS(=O)(=O)c1ccccc1)NCCSc1ccc(Br)cc1	nt	nt	9	nt	2	1	nt	6
C[C@@H](C(=O)Nc1ccc2c(c1)OCCO2)n1c(=O)[nH]c2ccccc2c1=O	-1	-5	-58	16	0	5	i	-42
CC(C)N(Cc1nc(-c2ccc(Cl)cc2)no1)C(=O)CN(C)S(=O)(=O)c1ccc(Cl)cc1	2	7	-3	0	-2	-6	i	nt
CCN(CC)Cc1cc(Nc2ccnc3cc(Cl)ccc23)ccc1O	3	2	-5&0	24&4	-1&-8	3&0	i	0
Cc1ccnc(N2CCN(C(=O)CSc3nc4ccccc4nc3N3CCC(C)CC3)CC2)c1	-4	2	nt	23	-4	-3	i	1
Cc1ccc(Nc2nnc(SCC(=O)NC3CCS(=O)(=O)C3)s2)c(C)c1 (centres undefined)	-2	99	nt	6	4	-2	i	-3	eIF4H FP inh retest=0;PABP polyA inh retest=6
CCc1nc2ccccc2c(C(=O)Nc2cc(C)ccc2C)c1C	3	-5	-16	-2	0	-1	i	-19
O=c1[nH]c(N/N=C/c2ccccc2)nc2ccccc12	4	-6	nt	8	5	1	i	-108
O=C(/C=C/c1cccs1)Nc1cccnc1	7	0	nt	3	6	8	i	-23
COC(=O)c1ccc(NC(c2ccc(Cl)cc2)P(=O)(OC)OC)cc1 (centres undefined)	80*	1.6*	nt	-13	4	1	i	-26	eIF4H FP inh retest=94*;PABP polyA inh retest=88*
O=C(Nc1ccccc1)C1=C(N2CCOCC2)/C(=C/c2cccnc2)CC1	-7	-1	-11	-4	0	-2	i	-70
Cc1cc(C(=O)CSc2nc3ccc(Cl)cc3[nH]2)c(C)n1C	23	36	-9	-6	0	-1	i	-175
CCCC(=O)NC1C2CC3CC(C2)CC1C3 (centres undefined)	1	0	-5	4	-9	-5	i	nt
COC(=O)c1ccccc1NC(=O)/C=C/C(=O)O	-12	5	-10	-8	0	2	i	-69
Cc1ccc(C2=NN3C(C(=O)c4ccccc4)Oc4ccccc4C3C2)cc1 (centres undefined)	-14	-5	-18	nt	-2	-3	i	-132
CCc1ccc(-c2cc(C)no2)cc1S(=O)(=O)Nc1ccc(C)cn1	10	12	-15	-9	2	0	i	8
CC(C)Cc1nc(SCC(=O)Nc2ccc(S(N)(=O)=O)cc2)n[nH]1	0	-14	-15	12	1	4	nt	-165
Cc1ccc(C(=O)COC(=O)CN2C(=O)C3CC=CCC3C2=O)cc1C (centres undefined)	nt	nt	-6	nt	2	4	nt	-34
CC(C)C[C@@H](C(=O)O)N(Cc1cccc(CN([C@@H](CC(C)C)C(=O)O)S(C)(=O)=O)c1)S(C)(=O)=O	-12	0	-4	10	0	1	i	61*
COc1ccc(C2c3[nH]c4ccccc4c3C[C@H]3C(=O)N(C4CCN(Cc5ccccc5)CC4)CC(=O)N23)cc1OC (some centres undefined)	-2	7	-2	-9	-6	-5	i	7
Cc1cccc(NC(=S)NC(NC(=O)c2ccco2)C(Cl)(Cl)Cl)c1 (centres undefined)	0	1	-12	nt	2	-7	i	-27
Cc1cccc(/C=N/NC(=O)CNc2cccc3ccccc23)n1	42	6	-23	2	-2	-9	i	21
CC(C)(C)NS(=O)(=O)NC(=O)C1=C(N2CCCC2)COC1=O	nt	nt	-19	-22	3	5	nt	-5
COCCCN1C(=O)C(=O)/C(=C(/O)c2ccc(OC(C)C)c(C)c2)C1c1ccncc1 (centres undefined)	-9	4	-11	1	3	6	i	nt
COCCNC(=O)C1c2cc(OC)c(OC)cc2C(=O)N(C)C1c1cccnc1 (centres undefined)	-12	-4	-12	-15	-1	-2	i	-67
SMILES	eIF4H FP inh	PABP polyA inh	Yeast UUG start	CSC inhib	MT1-MMP act inh	MT1-MMP act inh RFP	Rce1 inhib	HIV Env fusion	others
CC(C)CCNC(=O)c1ccc2c(Cl)c3c(nc2c1)CCC3	-10	8	-29	4	0	-3	i	-162
O=C(NNC1=NS(=O)(=O)c2ccccc21)c1ccccc1Cl	0	13	-5	-10	-4	2	i	1
O=C(NCc1ccncc1)c1ccccc1Nc1ccc(SC(F)F)cc1	2	4	-21	9	-2	-4	i	9
COc1ccccc1NS(=O)(=O)c1cccc(NC(=O)C2CC(=O)N(Cc3ccccc3)C2)c1 (centres undefined)	3	-2	nt	-8	4	-1	i	0
Cc1cc(C(=O)CN2C(=O)C(=O)N(CC(C)C)C2=O)c(C)n1C1CC1	nt	nt	-12	nt	1	2	nt	-16
COc1ccccc1OCC(=O)Nc1sc2c(c1C(=O)NCC1CCCO1)CCC2 (centres undefined)	-3	-6	-5	8	0	-5	i	15
Cc1cccc(CC(=O)N2CCC(n3nccc3NC(=O)C3CC3)CC2)c1	-11	-11	-15	-4	1	8	i	nt
O=C(NC12CC3CC(CC(C3)C1)C2)c1cccnc1	-4	-4	-8	-1	0	-10	i	-2
Cc1cc(C)n(C(=O)CNc2ccccc2Cl)n1	3	4	-3	1	1	5	i	nt
CCN(CC(=O)Nc1ccc(NC(C)=O)cc1)C(=O)/C=C/c1cn(Cc2ccccc2)nc1-c1cccnc1	nt	nt	-11	-3	-7	-2	i	1
Cc1ccc(CN2C(=O)[C@H]3Cc4c([nH]c5ccccc45)C(C)(C)N3C2=O)cc1	nt	nt	-10	-2	2	-9	i	8
Cc1c(Br)c([N+](=O)[O-])nn1CC(=O)NCCc1c[nH]c2ccccc12	22	16	-11	5	6	1	i	-4
COc1ccc(/C=C/C(=O)NC(=S)Nc2ccc(N3CCN(C(C)=O)CC3)cc2)cc1	16	16	-3	4	2	1	i	-1
O=C(c1cc(Cl)c(=O)n(Cc2ccc(Cl)cc2)c1)N1CCOCC1	0	1	0	-10	0	6	i	-150
CCOc1cc(C(=S)N2CCOCC2)ccc1OC(=O)/C=C/c1ccc(OC)c(OC)c1	-1	1	517*	-9	-7	-5	i	-11
Cc1nn(-c2ccccc2)c(C)c1C(=O)OCC(=O)Nc1ccc(C(N)=O)cc1	nt	nt	-12	nt	-4	2	nt	14
Cc1nc2cc(C(=O)OCC(=O)N(CC(C)C)C3CCS(=O)(=O)C3)ccc2n1-c1ccccc1 (centres undefined)	-5	1	-4	-10	0	3	i	-23
CCn1c(SC)nnc1-c1c[nH]c2ccccc12	-8	-1	-9	-11	0	-2	i	-5
CCN1CCN(c2ccc(NC(=O)c3ccc(C#N)cc3F)cc2Cl)CC1	-2	2	-13	15	2	1	i	11
Cc1nccc2[nH]c(=O)c(C(=O)NC3CCCCC3C)cc12 (centres undefined)	0	-7	-13	3	-6	-5	i	nt
O=C(c1cc([N+](=O)[O-])ccc1N1CCCCC1)N1CCCCC1	-4	-6	8	-2	5	2	i	-1
Cc1nn(C)c(Cl)c1/C=N/OC(=O)c1ccccc1	-3	-10	5	-9	-3	2	i	21
CCCn1c(N)c(N(CCOC)C(=O)c2ccc([N+](=O)[O-])c(C)c2)c(=O)[nH]c1=O	7	11	-12	-9	-1	0	i	-8
